MgrA-DNA mod: S. aureus MgrA activity modulators, primary screen, biochemical, S. aureus Newman, fluorescence polarization. inhibition, %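 (about 10 µg/mL by stock and volumes)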. MgrA-DNA binding. 0.13% of 84,000 active;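 active means above 50% in either of two replicates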;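 further: 0% = protein plus DNA without compound and 100% = DNA alone without protein; higher means less MgrA bound to DNA so lower polarization; one replicate is shown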
Sa helicase inh: inhibitors of S. aureus replicative helicase, primary screen, biochemical, fluorescence unwinding readout; purified S. aureus helicase, fluorescence unwinding assay; about half of the hits fall short of the stated cut; inhibition, %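 (tested at about 80 µM)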; 0.05% of 120,000 active; AID 485395, 2010;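 active means both duplicates at 50% or more, or one of them with a favoured structure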;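 further: 0% = mean of negative control wells and 100% = mean of positive control wells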
* = called active by the depositor; / = no result given; & = joins results of further samples. Only part of the results is shown. The share of hits here may be higher or lower than overall.

The first 7 records as a preview:
SMILES	MgrA-DNA mod	Sa helicase inh
COCc1cc(=O)[nH]c(-c2ccc(C(F)(F)F)cc2)n1	-0.4	/
CC(C)CN1CC(c2nc3ccccc3n2CCCN(C)C)CC1=O (stereo not drawn)	/	4.0
Cc1cc(OCC(O)CN2CCN(c3ccccn3)CC2)ccc1Cl (stereo not drawn)	/	-11.0
Cc1cc(C)cc(N=C2NC(=O)/C(=C/c3cccc([N+](=O)[O-])c3)S2)c1	-3.5	/
CC(C)C(NC(=O)C1CCCCC1)C(=O)N1CCN(c2ccc(F)cc2)CC1 (stereo not drawn)	/	15.0
O=C(O)CCC/C=C\C[C@@H]1[C@@H](/C=C/[C@@H](O)COc2cccc(Cl)c2)[C@H](O)C[C@@H]1O	-0.2	/
CC1(NS(=O)(=O)c2ccccc2)CCS(=O)(=O)C1 (stereo not drawn)	-1.2	6.0

All compounds of this part, previewed entries included:
SMILES	MgrA-DNA mod	Sa helicase inh
COCc1cc(=O)[nH]c(-c2ccc(C(F)(F)F)cc2)n1	-0.4	/
CC(C)CN1CC(c2nc3ccccc3n2CCCN(C)C)CC1=O (stereo not drawn)	/	4.0
Cc1cc(OCC(O)CN2CCN(c3ccccn3)CC2)ccc1Cl (stereo not drawn)	/	-11.0
Cc1cc(C)cc(N=C2NC(=O)/C(=C/c3cccc([N+](=O)[O-])c3)S2)c1	-3.5	/
CC(C)C(NC(=O)C1CCCCC1)C(=O)N1CCN(c2ccc(F)cc2)CC1 (stereo not drawn)	/	15.0
O=C(O)CCC/C=C\C[C@@H]1[C@@H](/C=C/[C@@H](O)COc2cccc(Cl)c2)[C@H](O)C[C@@H]1O	-0.2	/
CC1(NS(=O)(=O)c2ccccc2)CCS(=O)(=O)C1 (stereo not drawn)	-1.2	6.0
CC(C)CNC(=O)c1cnc2n(c1=O)CCS2	/	7.0
CCCCCc1ccc(NC(=O)NNc2cc(C(F)(F)F)cc(C(F)(F)F)c2)cc1	1.1	/
CCOc1ccc(Sc2cc(C(=O)N3CCCC3)c3ccccc3n2)cc1	-0.9	5.0
O=C(O)CCc1nc2ccccc2n(CCc2ccccc2)c1=O	-1.8	-1.0
S=c1[nH]nc(-c2ccccc2)o1	/	6.0&-3.0
O=C(NCC(c1ccc(F)cc1)N1CCOCC1)C(c1ccccc1)c1ccccc1 (stereo not drawn)	0.4	-16.0
O=C1c2ccccc2C(=O)N1Cc1ccc(Cl)cc1	/	-18.0
CC1CN(C(=O)c2cc3n(n2)C(C(F)(F)F)CC(c2ccco2)N3)CC(C)O1 (stereo not drawn)	7.2	20.0
CCOC(=O)C1=C(C)N=c2s/c(=C3\C(=O)N(C(C)=O)c4ccccc43)c(=O)n2C1c1ccc(OC)cc1 (stereo not drawn)	0.6	/
C=CCn1c(C)cc(C(=O)CSCc2nc3sc(C)c(C)c3c(=O)[nH]2)c1C	/	-35.0
CCC(C)(C(=O)NC1CCCCC1)N(C(=O)c1ccccn1)c1ccccc1 (stereo not drawn)	0.1	9.0
Cc1ccc(Nc2cc(C)nn2-c2ccccc2)cc1	/	-8.0
Cc1ccc(C)n1-c1ccc(C(=O)N2CCC(=O)CC2)cc1	/	-9.0
Cc1cccc(-c2cc(C(=O)N3CCN(C(=O)c4ccco4)CC3)c3ccc(Cl)c(C)c3n2)c1	14.6	4.0
Cc1nnc2c(N3CCCC3)nc3ccccc3n12	-1.0	13.0
C=CCN1C(=O)c2[nH]nc(-c3ccccc3O)c2C1c1ccc(O)cc1 (stereo not drawn)	/	17.0
CCC(=O)c1ccc(NC(C)=O)cc1O	-1.5	/
CN(Cc1ccccc1)C(=O)CNS(=O)(=O)c1cccs1	/	-6.0
Cc1ccc2c(c1)c1nc3ccccc3nc1n2CC(=O)O	/	-11.0
CC(=O)OCc1cn2ccccc2n1	0.5	12.0
CC/C(=N\N=c1/sc2ccccc2n1C)c1ccc(OC)c(OC)c1	/	-11.0
CCOC(=O)c1cc2c3c(c1)C1C=CCC1C(c1cccc([N+](=O)[O-])c1)N3CC1CC=CC21 (stereo not drawn)	0.5	/
CC1CN(CC(=O)Nc2c(Cl)cccc2Cl)CC(C)O1 (stereo not drawn)	/	5.0
N#CCCn1cc(C=C(C#N)C#N)c(-c2ccccc2)n1	/	26.0
NC(=O)c1ccc2ccccc2c1	2.1	3.0
CCCn1c(SCc2c(C(=O)OCC)oc3ccccc23)nnc1-c1ccncc1	/	-8.0
COc1ccc(C(=O)n2ccc(-c3cccs3)n2)cc1OC	/	-3.0
CCN(CC)c1ccc(/C=C/C#N)cc1	-5.5	4.0
O=C(COC(=O)c1ccc(S(=O)(=O)C(F)F)cc1)c1ccc2c(c1)OCCO2	/	17.0
C=CCSc1nnc(-c2cccnc2)n1Cc1ccccc1	/	30.0
COc1cc(CSc2nnnn2-c2ccc(C)cc2C)cc(OC)c1OC	0.2	/
Cn1c(=O)c2c(nc(Oc3ccc4c(c3)OCO4)n2Cc2ccc(F)cc2)n(C)c1=O	/	9.0
O=C(Nc1ccc(I)cc1C(=O)NCCN1CCOCC1)c1ccco1	-2.0	9.0
O=C1NC2(CCCC2)N=C1c1ccccc1	-0.4	5.0
Nc1ccccc1Sc1c(Cl)cncc1Cl	/	-21.0
CCCCc1c(C#N)c(N)nc2sc(C(=O)c3ccc([N+](=O)[O-])cc3)c(N)c12	-0.6	/
NC(=O)c1cc(C(=O)Cc2ccccc2)c[nH]1	0.4	/
O=C(Cn1nnc2ccccc21)Nc1cc(C(F)(F)F)ccc1Cl	-1.9	8.0
O=C(O)C1(c2ccccc2)CC1	/	15.0
Clc1ccccc1CNC12CN3CN(CN(C3)C1)C2	-0.2	-4.0
C=CCSc1nc(Nc2ccc(Cl)cc2)c2cnc(N3CCOCC3)nc2n1	/	2.0
COc1ccc(NC2=Nc3ccccc3CC2)cc1	0.6	6.0
N#CCCn1cc(C#N)c(-c2ccccc2)n1	/	-14.0
COc1ccc(/C=N/c2n[nH]c(N)n2)cc1	/	-33.0
CN(C)/C=C1\Cc2ccccc2C1=O	2.7	/
O=C(c1ccccc1)c1cc2c(cc1Br)OCCO2	0.8	/
Cc1nn(CCCC(=O)NCCC2=CCCCC2)c(=O)c2cc3sccc3n12	/	-19.0
CN(CCc1ccccn1)Cc1ccccn1	4.3	13.0
O=C(C1CCCO1)N1CCNCC1 (stereo not drawn)	/	-5.0
O=S(=O)(c1ccc2c(c1)CCO2)N1CCCN(c2c(Cl)cncc2Cl)CC1	-3.0	/
S=C1NCN(CCc2ccccn2)CN1	/	-11.0
CCOC(=O)c1c(C=O)oc2c(C)cc(OC(=O)c3ccccc3[N+](=O)[O-])c(Br)c12	0.6	/
Cc1nc2ccccn2c1C(=O)OCC#N	-2.1	5.0

Further records follow.
SMILES	MgrA-DNA mod	Sa helicase inh
CCOc1ccc(N(CC(=O)NC2CCCC2)S(=O)(=O)c2c(C)noc2C)cc1	/	4.0
O=C(c1ccc(C(F)(F)F)cc1)n1ccc(-c2cccs2)n1	1.1	/
CC(C)N(C(=O)c1cnc2n(c1=O)CCS2)C(C)C	/	0.0
O=S(=O)(NC1c2ccccc2Oc2ccccc21)c1ccc2ccccc2c1	-0.8	6.0
Cc1cccc(C)c1N1C(=O)CSC1=O	1.1	/
COc1ccc2c(c1)CCc1c(C(=O)Nc3cnn(Cc4ccc(F)cc4)c3)noc1-2	/	-20.0
COc1ccc(COCC(O)CN2CCN(c3ccc(C(F)(F)F)cn3)CC2)cc1 (stereo not drawn)	0.2	/
O=C(CN(C(=O)c1ccc(Cl)nc1)c1ccccc1)NCC1CCCO1 (stereo not drawn)	-3.0	-1.0
Cc1nn(-c2ccccc2)c(Cl)c1C(=O)OCC(N)=O	/	-10.0
NC(N)=NC(N)=Nc1ccc(F)c(Cl)c1	-2.7	/
Cc1cc(C(=O)COc2cccc3c2OC(C)(C)C3)c(C)n1C1CC1	/	-12.0
CC1CCC(OC(=O)CCC(=O)Nc2ccc(Br)cc2)CC1 (stereo not drawn)	2.0	-3.0
CN(c1ccccc1)S(=O)(=O)c1cc(C(=O)NCCCN2CCOCC2)ccc1Cl	/	-4.0
Cc1nc2ccc(NS(=O)(=O)c3ccc(F)c(Cl)c3)cc2o1	-0.8	/
CC(C)N(C(=O)Cn1c(-c2ccco2)nc2ccccc21)c1ccccc1	-1.2	-17.0
COc1ccc(-c2noc(-c3ccccc3)n2)cc1	-2.0	8.0
COc1ccccc1NC(=S)N1CC(C)OC(C)C1 (stereo not drawn)	-1.3	/
COC(=O)c1ccccc1NC(=O)COC(=O)c1ccn(C)n1	/	24.0
O=C(C1CC1)N1c2ccccc2Sc2ccccc21	-0.6	8.0
COC(=O)c1cc(Cl)c(NC(=O)C(C)C)cc1OC	/	3.0
O=C(OCc1nc2ccccc2s1)c1ccc(S(=O)(=O)N2CCCC2)cc1	/	-17.0
CN(C)CCCNc1nn2c(=O)c3ccccc3nc2c2ccccc12	/	16.0
CCN(CC)CCNc1ccc2nnc(CCNC(=O)c3ccc(C)cc3)n2n1	-2.3	15.0
CCOC(=O)c1cccc(NC(=O)c2ccc3c(c2)C(=O)N(Cc2ccco2)C3=O)c1	5.3	4.0
C=CCn1c(COc2cccc3ccc(C)nc23)nnc1SC	/	2.0
O=C(O)CSCCc1ccccn1	-3.8	6.0
O=C(Nc1ccccc1N1CCOCC1)c1cccc(N2C(=O)c3ccccc3C2=O)c1	/	-7.0
NC(=O)c1cc[n+](CC(=O)N2CCCCCC2)cc1	/	5.0
C[n+]1cc(-c2ccc3ccccc3n2)cc2ccccc21	2.5	28.0
CC(C)OC(=O)c1ccc(COC(=O)CCc2nc3ccccc3[nH]c2=O)cc1	/	9.0
CCN(CC)S(=O)(=O)c1ccc(Nc2nc3ccc(Cl)cc3n3cnnc23)cc1	/	6.0
O=C(NC1CCCCCC1)c1cccc2c1C(=O)N(C1CCCCC1)C2	1.1	13.0
O=C(O)CN(CCN(CC(=O)O)CC(=O)O)CCN(CC(=O)O)CC(=O)O	7.9	/
Cc1ccc(Nc2nc(Cl)nc(N(C)C#N)n2)cc1	0.4	3.0
CC(c1cccnc1)N(C(=O)Nc1ccccc1)C1CCCCC1 (stereo not drawn)	1.2	-2.0
COc1c(Cl)ccc(Cl)c1C(=O)NC(=S)N1CCOCC1	-1.3	8.0
CC(=NCCN1CCNCC1)C1=C(O)CC(C)(C)CC1=O	-0.9	-2.0
CCN(CC)c1nc(Nc2ccc(Cl)cc2)nc(OCC#N)n1	1.8	-7.0
CC(C)OC(=O)Nc1cnccc1C(F)(F)F	-3.0	/
CC1CCc2sc(C(=O)NN)cc2C1 (stereo not drawn)	/	18.0
CC(=O)Nc1ccc(N=Nc2ccc(O)cc2)cc1	/	-1.0
CCn1cc(NC(=O)NC2CCc3ccccc32)c(=O)c2ccc(C)nc21 (stereo not drawn)	/	-6.0
CC(Sc1nnc2n(C)c3ccccc3n12)C(=O)O (stereo not drawn)	/	12.0
C=CCn1c(N2CCOCC2)nc2ccccc21	1.0	-2.0
O=S(=O)(CCSCc1csc2ccccc12)c1ccc(F)cc1	-2.2	/
Cc1cc(C)n(C(=O)CNc2cccc(Cl)c2C)n1	-2.8	-1.0
CN(C)c1ccc(C2N(Cc3ccccc3)CCN2Cc2ccccc2)cc1	-2.5	3.0
Cc1nn(Cc2ccccc2)c2ncccc12	/	11.0

Single records, as listed above. Values in the order: MgrA-DNA mod | Sa helicase inh
C=CCSc1nnc(-c2cccnc2)n1Cc1ccccc1 across the screens: / | 30.0
O=C(O)CCc1nc2ccccc2n(CCc2ccccc2)c1=O across the screens: -1.8 | -1.0
Cc1ccc(C)n1-c1ccc(C(=O)N2CCC(=O)CC2)cc1 across the screens: / | -9.0
O=C(O)CN(CCN(CC(=O)O)CC(=O)O)CCN(CC(=O)O)CC(=O)O across the screens: 7.9 | /

(listing goes on)
SMILES	MgrA-DNA mod	Sa helicase inh
CCCCCn1c(=O)[nH]c2cc(C(=O)NC3CCC(C)CC3)ccc2c1=O (stereo not drawn)	/	-22.0
COc1ccc2c(c1)c(=O)oc1cc(OC(C)C)ccc12	0.5	11.0
Cc1cc(NC(=O)C2CC(=O)OC2c2ccccc2)no1 (stereo not drawn)	-7.2	7.0
CCOC(=O)Cn1c(-c2ccco2)nc(-c2ccccc2)c1-c1ccccc1	/	10.0
COc1ccc(C2C(C(=O)Nc3ccc(OC)c(OC)c3)c3ccccc3C(=O)N2C)cc1 (stereo not drawn)	0.5	1.0
CC[N+](CC)=c1scc(-c2ccc(Cl)cc2)s1	0.1	10.0
Cc1nc(N2CCN(C(=O)c3ccco3)CC2)[nH]c(=O)c1Cc1cccc(Cl)c1	-2.5	3.0
CCOC(=O)c1cc2c(c(CSc3cccc(C(F)(F)F)c3)c1)OCOC2	2.9	/
Cc1nn(-c2ccccc2)nc1C(=O)NC1CCS(=O)(=O)C1 (stereo not drawn)	-0.6	/
c1ccc(-c2nsc(N3CCCNCC3)n2)cc1	-3.6	/
COc1ccc(NC(=O)c2cccc(C)c2)c(OC)c1	-2.3	9.0
COc1cccc(C(=O)NCc2cn3ccccc3n2)c1	/	4.0
O=C(NC(Cc1c[nH]c2ccccc12)C(=O)O)c1cccs1 (stereo not drawn)	-6.1	-17.0
Cc1ccc(CN(C)CCc2ccccn2)cc1	/	-4.0
CCOC(=O)C1CCN(C(=O)COc2ccc(S(=O)(=O)N3CCCCC3)cc2Cl)CC1	7.8	9.0
CNC(=O)c1sc(NCc2ccco2)nc1C	/	22.0
CCOc1ccc(N=C2NC(=O)C(CC(=O)NC(N)=O)S2)cc1 (stereo not drawn)	/	11.0
CN(C1CCS(=O)(=O)C1)S(=O)(=O)c1ccc(F)cc1 (stereo not drawn)	/	13.0
CCCn1c(C2CC(=O)N(c3ccccc3)C2)nc2ccccc21 (stereo not drawn)	/	-13.0
Cc1ccc(CNC(=O)Cn2ccn(Cc3ccccc3)c(=O)c2=O)cc1	3.7	10.0
COc1ccc2c(c1)C(=NN)c1cc(OC)ccc1-2	4.2	16.0
O=C(NC1CCCCC1O)c1ccccc1C(F)(F)F (stereo not drawn)	/	10.0
CN(NC(=S)Nc1ccccc1)c1ccc(Cl)cc1	-1.4	10.0
